PINK1 expr mod – A Quantitative High throughput Screen to Identify Chemical Modulators of PINK1 Expression; PINK1 immunofluorescence, high-content cytometry, 24 h; Potency, µM (titrated, usually from 76.6 µM), for inactives: at the top dose activation (PINK1 increase), hits mostly activators; 410,000 compounds, 0.2% hits; AID 624263, 2012; active = well fitted activation curve with a large enough effect; inconclusive = small, poorly fitted or top-dose-only effect; inactive = flat fitted curve, though single readings scatter; cell line not stated here;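 further: potency means the concentration at half of the fitted maximal effect; % of control where 0% means no effect; nearly all actives have a fitted effect of over 65% in size; a mitochondrial uncoupler was the plate control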
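Stable cell line, 250 cells/well, 12 h attachment; compounds pinned at 5 concentrations, 24 h; CCCP control. Fixed with nuclear dye, primary antibodies 12 h at 10 degrees C, secondary plus cell stain; laser-scanning cytometer read.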
TRPML1 ag – qHTS for Agonists of the Human Mucolipin Transient Receptor Potential 1 (TRPML1). activation, % (no concentration beside the values). 410,000 compounds, 0.12% hits. TRPML1-expressing cells, Ca2+ dye fluorescence, FDSS; host cell line not named in the record; reference of the full effect not given here. Mucolipin-1 (Homo sapiens), Q9GZU1. AID 624414, 2012; in the data active = activation above about 50%; inconclusive = about 30% to 50%; inactive = below about 30%; further: 0% is about no effect; the text of the record puts the active cut at 80%
Target sequence (Q9GZU1 whole entry, looked up): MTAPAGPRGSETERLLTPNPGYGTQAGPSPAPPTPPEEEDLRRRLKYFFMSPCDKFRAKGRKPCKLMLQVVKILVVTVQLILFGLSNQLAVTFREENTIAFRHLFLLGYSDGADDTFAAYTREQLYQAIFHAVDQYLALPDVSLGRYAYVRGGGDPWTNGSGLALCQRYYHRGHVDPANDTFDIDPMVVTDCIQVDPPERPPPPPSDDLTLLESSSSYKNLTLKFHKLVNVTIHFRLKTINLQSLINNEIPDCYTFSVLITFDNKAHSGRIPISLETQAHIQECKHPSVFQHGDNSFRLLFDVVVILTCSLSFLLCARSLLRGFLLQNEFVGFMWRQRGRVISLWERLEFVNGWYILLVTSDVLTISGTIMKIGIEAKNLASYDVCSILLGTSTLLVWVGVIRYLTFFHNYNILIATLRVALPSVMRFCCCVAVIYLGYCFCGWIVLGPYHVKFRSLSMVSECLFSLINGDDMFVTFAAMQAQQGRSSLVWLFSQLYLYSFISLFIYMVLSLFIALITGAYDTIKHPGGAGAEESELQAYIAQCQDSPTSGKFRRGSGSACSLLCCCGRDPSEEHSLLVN
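TRPML1-DL cells, Tet-induced overnight (~16 h, 37 degrees C), loaded 45-90 min at room temperature with Ca8 no-wash calcium dye plus quencher. FDSS fluorescence: 10 s baseline, compound pin-transfer, 110 s agonist read, then EC80 54-4 (4uM final) and 110 s antagonist read.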
TRPML1 inh – qHTS for Inhibitors of the Human Mucolipin Transient Receptor Potential 1 (TRPML1); TRPML1-inducible cells, Ca2+ dye fluorescence, FDSS; hits give low values; inhibition of EC80 agonist-evoked calcium signal; activity change, negative = inhibition, % (no concentration beside the values); 390,000 compounds, 0.02% hits; AID 624415, 2012; in the data active means activity change below about -50%; inconclusive means about -30% to -50%; inactive means above about -30%;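 further: stimulus is agonist 54-4 at its EC80 concentration; on the % scale 0 is the no-effect control and ±100 the full control effect; compound concentration not given in the record; the text of the record puts the active cut at -80%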
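TRPML1-DL cells, Tet-induced overnight (~16 h, 37 °C) at 1,500 cells/well, were loaded with Ca8 no-wash dye plus quencher for 45-90 min at room temperature. Compounds were pinned during FDSS kinetic reading; agonist 54-4 at EC80 (4 uM final) then added.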
CtBP-E1A blk – qHTS Assay for Inhibitors of the CtBP/E1A Interaction | CtBP / adenovirus E1A interaction (AlphaScreen) | AlphaScreen GST-E1A/His-CtBP binding, 1536-well; hits give low values; control for the full effect not named in the record | activity change, % (no concentration beside the values) | 340,000 compounds, 0.49% hits | AID 651724, 2012; in the data active means activity change below about -65%; inconclusive means about -30% to -65%; inactive means above about -30%; further: on the % scale 0 is the no-effect control and ±100 the full control effect
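GST-E1A and His-tagged CtBP (125 nM each as 5X stock) were preincubated with pin-transferred compound for 2 h at 37 °C in the dark, then glutathione donor and nickel acceptor beads were added for 1 h before AlphaScreen reading.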
Six1-Eya2 blk – qHTS Assay for Inhibitors of the Six1/Eya2 Interaction; Homeobox protein SIX1 (Homo sapiens) + Protein phosphatase EYA2 (Homo sapiens), …; AlphaScreen GST-Six1/His-Eya2 binding, biochemical; hits give low values; control for the full effect not named in the record; activity change, % (no concentration beside the values); 360,000 compounds, 0.56% hits; in the data active = activity change below about -65%; inconclusive = about -30% to -65%; inactive = above about -30%; further: on the % scale 0 is the no-effect control and ±100 the full control effect
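AlphaScreen with GST-Six1 and His-Eya2 (5X mix: 250 nM and 500 nM), glutathione donor and nickel acceptor beads; buffer 50 mM Tris pH 8.0, 300 mM NaCl, 1 mM TCEP; 1 h at 37 C in the dark.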
D2 ag – Beta-Arrestin HTS for Positive Allosteric Modulators of the Human D2 Dopamine Receptor: Agonists; D(2) dopamine receptor (Homo sapiens), P14416; DiscoveRx PathHunter D2 beta-arrestin, luminescence, 90 min; 100% = 57 uM dopamine signal; activation, % (no concentration beside the values); 360,000 compounds, 0.084% hits; in the data active = activation above about 40%; inconclusive = about 15% to 40%; inactive = below about 15%; further: compound concentration not given in the record; the text of the record calls up to 30% inactive
Target sequence (P14416 whole entry, looked up): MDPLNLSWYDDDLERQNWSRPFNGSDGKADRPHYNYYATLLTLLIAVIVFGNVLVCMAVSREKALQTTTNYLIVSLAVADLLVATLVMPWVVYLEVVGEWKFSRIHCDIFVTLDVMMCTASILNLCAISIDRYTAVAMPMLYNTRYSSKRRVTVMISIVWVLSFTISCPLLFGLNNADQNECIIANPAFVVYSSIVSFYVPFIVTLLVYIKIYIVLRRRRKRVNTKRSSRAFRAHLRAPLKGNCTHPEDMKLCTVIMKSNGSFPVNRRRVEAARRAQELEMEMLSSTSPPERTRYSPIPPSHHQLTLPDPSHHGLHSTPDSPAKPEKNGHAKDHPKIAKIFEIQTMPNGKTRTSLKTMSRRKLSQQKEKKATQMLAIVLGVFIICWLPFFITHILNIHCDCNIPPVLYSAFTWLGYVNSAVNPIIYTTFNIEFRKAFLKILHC
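DiscoveRx PathHunter D2 beta-arrestin cells (2,100/well) attached overnight, then compound-stimulated 90 min at 37 C in HBSS/10 mM HEPES/0.1% Tween-20 buffer; beta-galactosidase complementation read by luminescence after 1 h at ambient temperature. Dopamine 57 uM final (EC100) as control.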
Active calls of the source: *; ? = inconclusive; / = not tested or not shown; [ ] = another dose, or the depositor's remark.

SMILES	PINK1 expr mod	TRPML1 ag	TRPML1 inh	CtBP-E1A blk	Six1-Eya2 blk	D2 ag
O=C(/C=C/c1c(F)cccc1Cl)Nc1nc2ccccc2[nH]1	15%	-0.3	-5	2	-5	-2.1
COc1cccc(-n2c(SCC(=O)N3CCOCC3)nnc2-c2c[nH]c3ccccc23)c1	-0.3%	-0.7	18	0	2	-0.6
COc1cccc(NC(=O)c2sc3nc(C)c(C(=O)Nc4ccc(C)cc4C)c(-c4ccco4)c3c2N)c1	2.7%	5.1	4	/	/	/
CC(C)(C)OC(=O)N1CCCC1C(=O)N1CCc2ccccc21 (stereo not drawn)	2.7%	-0.4	-13	-8	-1	-3.7
COc1cccc(OC)c1C(=O)Nc1ccc2c(c1)N(C(C)=O)CCC2	0.8%	3.2	-15	/	/	/
O=S(=O)(NCc1ccccc1Cl)c1cccs1	-1.0%	0.0	-6	5	8	0.2
O=C(NCCC1=CCCCC1)c1cc2ccccc2oc1=O	5.9%	-1.0	5	/	4	-5.1
CCc1ccc2c(c1)C(O)(CC(=O)c1cccs1)C(=O)N2 (stereo not drawn)	1.8%	0.0	-11	-5	-3	1.6
COc1ccc(NC(=O)C2(C)CCN2C(=O)Cc2ccc(Cl)cc2Cl)cc1OC (stereo not drawn)	2.8%	-0.5	/	21	14	-5.3
COC(=O)CN(c1ccc(C)cc1)S(=O)(=O)c1c(C)[nH]c(=O)[nH]c1=O	5.2%[38.3 µM]	0.0	-9	41	18	0.8
O=S(=O)(Cc1nc2ccccc2s1)c1ccccc1	2.0%	1.2	-4	-2	1	2.0
CCOc1ccccc1NC(=O)CCS(=O)(=O)c1ccc2c(c1)oc(=O)n2C	0.3%	-0.6	-9	/	/	/
O=C(N/N=C/c1cn(-c2ccccc2)nc1-c1cc2ccccc2o1)c1cccnc1	2.0%	0.0	1	-4	-14	-5.1
Cc1ccc2[nH]c3c(=O)n(CC(=O)N4CCN(c5ccccc5F)CC4)ncc3c2c1	0.0%	2.1	3	/	/	/
Cc1ccc(/C=C/C(=O)O)cc1S(=O)(=O)Nc1ccccc1C(=O)O	0.5%	0.6	15	/	-3	-3.5
C[C@@H]1CN(c2nc3nonc3nc2N2CCSCC2)C[C@H](C)O1	2.5%	-0.4	-1	-24	-3	-2.2
Cc1ccc(CSCC(=O)Nc2cc(S(=O)(=O)N3CCOCC3)ccc2OCC(F)(F)F)cc1	-0.6%	3.9	-9	-11	3	3.2
Cc1cc(NC(=O)c2cccc3c2C(=O)N(C2CCCCC2)C3)ccc1Br	-0.4%	-0.2	-5	-1	6	1.5
Cc1cc(NC(=O)CSCC(=O)Nc2cc(Cl)ccc2N2CCN(C)CC2)no1	0.9%	0.4	-5	/	9	-3.1
COC(=O)c1ccc(S(=O)(=O)NCCSc2nnc3c4ccccc4n(C)c3n2)cc1	2.8%[38.3 µM]	2.0	-7	-16	-9	-0.7
CCCCn1c(N)c(N(CCOC)C(=O)c2ccc(Br)s2)c(=O)[nH]c1=O	-0.8%	0.2	37	7	-1	-1.5
Cc1cc(SCC(=O)NC2CCCCC2)nc2ccccc12	2.1%	1.5	-7	10	-2	-0.2
COc1ccc(C(=O)NC2CC2)cc1OC1CCN(Cc2cc(C)c(C)cc2C)CC1	1.4%	0.8	1	1	4	1.8
Cc1cc(C)c(C(=O)O)c(Cl)n1	-0.7%	0.2	-2	-7	4	-2.5
COC(=O)/C(C#N)=C/c1ccc(N2CCOCC2)c([N+](=O)[O-])c1	-0.3%	-0.1	12	1	12	0.4
CCOC(=O)/C(O)=C(\C#N)c1nc2ccccc2[nH]1	3.2%	0.1	12	-2	-10	2.1
CN1CCC(=C(c2ccc(Cl)cc2)c2ccccn2)CC1	-0.3%	0.3	-14	/	7	3.8
CN[C@H](C)C(=O)NC[C@H]1O[C@@H](n2cc(C)c(=O)[nH]c2=O)C[C@@H]1O	2.0%	-0.1	1	-14	42	-1.9
CCc1ccc(OCC(=O)Nc2c(C(=O)c3ccc(Br)cc3)oc3ccccc23)cc1	2.0%	-0.4	-3	/	/	/
COC(=O)C(Cc1ccc(O)cc1)NC(=O)C(CC(=O)OC(C)(C)C)NC(=O)OC(C)(C)C (stereo not drawn)	2.1%	0.7	-24	0	11	-1.4
CCOc1ccc(N=C2NC(=O)S/C2=C\c2ccc(OC)cc2)cc1	3.9%[38.3 µM]	1.0	34	-4	2	0.1
COC(=O)c1ccc2nc(-c3ccc(OC)c(OC)c3)c(Cc3ccccc3OC)n2c1	1.7%	-0.3	/	-1	-4	-3.6
Cc1cc(=O)[nH]c(NCCO)n1	-2.6%	0.4	-1	2	9	0.9
CC1=C(C)C(c2ccccc2)NC(=S)N1 (stereo not drawn)	1.7%	2.0	-11	-5	-9	-4.3
Cc1ccc(CN2CC(C(=O)Nc3ccc(S(=O)(=O)N4CCCCC4)cc3)CC2=O)cc1 (stereo not drawn)	3.3%	0.6	-6	-14	-1	1.4
Brc1ccc2[nH]c3c(N4CCc5ccccc5C4)ncnc3c2c1	1.8%	1.4	26	-14	-14	?
CCCCN1CCc2nc(Nc3ccc(OC)cc3OC)ncc2C1	5.4%	0.7	-3	/	/	/
Cc1ccsc1/C=N/NC(=O)c1ccc2ccccc2c1	5.2%	0.1	30	-3	-2	-2.4
CC(=O)NC1(C(F)(F)F)NC(=O)N(c2ccc(F)cc2)C1=O (stereo not drawn)	-0.1%	-0.3	5	-2	6	-0.3
O=C(O)CN1C(=O)/C(=C\c2cccc(OCc3ccc(Cl)cc3Cl)c2)SC1=S	4.3%	-0.4	-5	-2	-16	-1.3

2 compounds drawn at random from the list so far:
SMILES	PINK1 expr mod	TRPML1 ag	TRPML1 inh	CtBP-E1A blk	Six1-Eya2 blk	D2 ag
CN[C@H](C)C(=O)NC[C@H]1O[C@@H](n2cc(C)c(=O)[nH]c2=O)C[C@@H]1O	2.0%	-0.1	1	-14	42	-1.9
Cc1ccc(CN2CC(C(=O)Nc3ccc(S(=O)(=O)N4CCCCC4)cc3)CC2=O)cc1 (stereo not drawn)	3.3%	0.6	-6	-14	-1	1.4

Back to the main list; the 3 compounds before the break are reprinted first.
SMILES	PINK1 expr mod	TRPML1 ag	TRPML1 inh	CtBP-E1A blk	Six1-Eya2 blk	D2 ag
Cc1ccsc1/C=N/NC(=O)c1ccc2ccccc2c1	5.2%	0.1	30	-3	-2	-2.4
CC(=O)NC1(C(F)(F)F)NC(=O)N(c2ccc(F)cc2)C1=O (stereo not drawn)	-0.1%	-0.3	5	-2	6	-0.3
O=C(O)CN1C(=O)/C(=C\c2cccc(OCc3ccc(Cl)cc3Cl)c2)SC1=S	4.3%	-0.4	-5	-2	-16	-1.3
COc1ccc(C2CC(=O)Nc3c2c(=O)[nH]c2nc4ccccc4n32)cc1OC (stereo not drawn)	0.5%	-0.2	12	/	/	/
CN(C)c1oc(-c2cccs2)nc1C#N	-1.2%	-0.9	-8	-9	-23	-0.7
CCC1=[N+](C)CCn2c(C)ccc21	0.1%	-0.2	0	4	4	-4.3
COc1cc(NC(=O)c2cc(C)no2)cc(OC)c1OC	-1.6%	0.3	8	0	9	2.7
CC(C)CCn1c(SCC#N)nc2c(sc3ccccc32)c1=O	14%	1.6	-2	0	2	0.7
O=C(NCc1ccco1)c1cnn2c(C(F)(F)F)cc(-c3ccco3)nc12	7.5%	1.9	26	-16	-10	-3.4
O=C(CN1CCC(NC(=O)C2CCCCC2)CC1)Nc1cccc(F)c1	1.7%	0.4	2	4	-2	-2.5
O=C(Nc1ccc(N2CCCC2)c(Cl)c1)c1ccc(Br)o1	0.4%[38.3 µM]	0.7	-20	-13	-15	0.9
O=C(Nc1cc(C(F)(F)F)ccc1N1CCOCC1)c1cccc(F)c1	0.9%	-0.4	7	-1	2	-0.5
CC(C)(C)C1CCC(OC(=O)c2ccncc2)CC1 (stereo not drawn)	6.0%	-0.3	4	0	7	-2.0
COc1ccccc1N1CCN(C(c2cccs2)C(C)NC(=O)c2ccco2)CC1 (stereo not drawn)	-1.1%	1.2	39	-3	-3	1.7
CCC(CC)CN1CCC(CN2C(=O)C(=O)NC[C@@H]2[C@@H](C)CC)CC1	-0.5%	-1.1	28	2	1	-1.3
Clc1ccc(-c2cc(COc3ccccc3)on2)cc1	-0.5%	3.2	49	2	18	-4.5
NC(=O)NC(Cc1ccccc1)C(=O)NCC1(N2CCCCC2)CCCCC1 (stereo not drawn)	1.5%	-0.1	-13	-3	0	-3.6
COc1ccc(-c2nc(-c3ccc(NC(=O)c4ccc(Br)o4)cc3)no2)cc1OC	5.0%	0.8	-3	-2	8	?
COc1ccc(-c2cn3cccnc3n2)cc1NC(=O)C1CC1	6.2%[38.3 µM]	2.3	-4	1	-2	-3.2
CCc1cc(Cn2nc(-c3ccccc3)cc2C(=O)NCc2cccc(C(F)(F)F)c2)on1	11%	1.1	8	14	3	-1.1
COC(=O)COc1ccc(S(=O)(=O)Nc2ccc(C(N)=O)cc2)cc1	3.5%[38.3 µM]	3.8	17	19	0	-0.1
COC(=O)c1ccc(COc2c(F)c(F)cc(F)c2F)o1	-1.6%	1.9	-15	14	10	-16
c1ccc(CSc2nnc3ccc(-c4ccco4)nn23)nc1	0.9%	/	/	-3	3	-0.1
O=C(COC(=O)c1ccc(S(=O)(=O)N2CCCC2)cc1)NCc1ccccc1	0.1%	-0.3	0	2	-1	-3.7
CC(=O)c1cc2c(s1)-c1cc(F)ccc1OC2	-0.6%	-0.5	17	74	43	-8.4
Cc1ccc(S(C)=O)cc1-n1c(=O)n(Cc2ccccc2)c(=O)c2[nH]cnc21 (stereo not drawn)	6.4%	-0.5	41	4	9	-15
CCc1ccc(NC(=O)C2CCCN2C(=O)NC2CCCCC2)cc1 (stereo not drawn)	4.3%	-0.3	-7	0	0	5.6
COc1cccc(-n2nnc3c(=O)n(CC(=O)N4CCC(Cc5ccccc5)CC4)cnc32)c1	14%	-0.4	-8	4	6	-1.9
CC(C)c1ccc(NC(=O)c2cc(S(=O)(=O)N3CCCCC3)c[nH]2)cc1	-0.4%	-1.1	0	2	-6	-5.2
CCCCNC(=O)CSc1nc2ccccc2nc1Cc1ccc(C)cc1	2.1%	-0.3	15	/	/	/
COc1ccc(N(C(=O)c2cnccn2)C(C(=O)NCc2ccccc2)c2ccc(O)cc2)cc1 (stereo not drawn)	1.8%	-0.3	-4	-4	-13	0.5
COc1ccc(N(Cc2cc3cccc(C)c3[nH]c2=O)S(C)(=O)=O)cc1	?	-0.4	-3	4	4	-1.5

The order is random; any-hit rate near 1%.
